Sa ugtP lethal – growth inhibition of ugtP-null S. aureus, primary screen, RN4220 ugtP deletion, OD600; 16 h; some inactives read as strong as hits; growth inhibition, % (concentration not given with the values); 330,000 tested, 0.54% active;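 active = z-score under -3 and OD600 up to 0.15 on both plates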;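 note: plate controls were untreated wells for no effect and antibiotic for full effect; wells of about 80 µL received 100 nL stock; the first replicate is given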
PrP UTR inh – inhibition of PrP 5' UTR reporter expression; cell-based PrP 5' UTR mRNA reporter, plate reader; inhibition, % (test concentration not listed); 340,000 tested, 0.35% active; AID 488862, 2010;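 active = every replicate at 50% or more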;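 note: 0 = median of the neutral control wells; tested in H4 reporter cells; numbers are from one replicate; inactives centre near -14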
Bead autofluor – compound fluorescence in toxin protease inhibitor counterscreen; compound autofluorescence counterscreen, microsphere flow cytometry; active compounds read high; fluorescence intensity (test concentration not listed); 360,000 tested, 3.1% active; AID 624483;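 active = at least 3 SD above the mean of all compounds, about 16000 in these data; inconclusive = too few beads counted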;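 note: 100 nL of 1 mM stock went into each well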
Mtb hypoxia rep – PubChem AID 1159583; M. tuberculosis hypoxia-regulated fluorescent reporter, fluorescence; fluorescence inhibition, % (no concentration beside the values); 300,000 tested, 0.1% active;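 active = 35 to 45% if threefold the growth effect, above 45% if 1.5-fold the growth effect; inactive = the rest, general growth blockers included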;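 note: wells of about 50 µL received 100 nL stock; 0% = vehicle wells and 100% = reference inhibitor wells; whole bacteria with a GFP reporter of the hypoxia response; strong numbers were not always called active; many hits fall short of the cut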
BJeLR lethal – MLPCN primary cell-based screen for lethality selective to Ras in HRASV12 cells; inhibition, % (no concentration beside the values); 300,000 tested, 0.17% active; AID 1554, 2009; BJeLR (HRASV12) viability, CellTiter-Glo ATP luminescence, 48 h; reference of the scale not given here;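 active = replicate mean above 50%; inconclusive = above 50% but judged a plate artefact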;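 note: 50 nL library stock added to about 25 µL; numbers are from one replicate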
Sa RN4220 lethal – growth inhibition of S. aureus RN4220, primary screen, OD600. AID 1259311, 2017. 16 h. 330,000 tested, 0.33% active. inhibition, % (concentration not given with the values);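 active = z-score of -3 or lower and OD600 up to 0.18 on both plates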;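 note: plate controls were untreated cells for no effect and reference antibiotic for full effect; stock transfer was 100 nL into about 80 µL; one replicate is shown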
Mtb hypoxia rep growth – further read-out of Mtb hypoxia rep, marked with its call; growth inhibition, %; measured here: M. tuberculosis growth (absorbance);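 0% = vehicle and 100% = reference antibiotic; read after six days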
* marks the source's active call; other numbers are inactive results.

For N#Cc1ccc(C(=O)Nc2nc3ccccc3[nH]2)cc1 the results were Sa ugtP lethal -6, PrP UTR inh -53, Bead autofluor 5472, Mtb hypoxia rep 2, BJeLR lethal 8, Sa RN4220 lethal 3.2 and Mtb hypoxia rep growth 4.
Screening CN(C)C(=NS(=O)(=O)c1ccc(F)cc1)c1ccccc1 returned Sa ugtP lethal 1, Mtb hypoxia rep -3, Sa RN4220 lethal 1.9 and Mtb hypoxia rep growth -4.
`CC(=NNC(=O)c1ccoc1C)c1cccc(NC(=O)C(F)(F)F)c1` gave Sa ugtP lethal 1, Mtb hypoxia rep -9, Sa RN4220 lethal -1.2 and Mtb hypoxia rep growth 15.
For CC(=NNC(=O)CCc1ccccc1)C1C(=O)c2ccccc2C1=O the results were Sa ugtP lethal 8, Mtb hypoxia rep 5, Sa RN4220 lethal 2.7 and Mtb hypoxia rep growth 0.
`COc1ccc(NC(=O)CNC(=O)Cc2ccccc2)cc1OC` gave Sa ugtP lethal 4, PrP UTR inh -11, Bead autofluor 3618, Mtb hypoxia rep 0, BJeLR lethal -1, Sa RN4220 lethal 1.7 and Mtb hypoxia rep growth -3.
CCOc1ccc(S(=O)(=O)NCCC(=O)OCC(=O)Nc2cc(C)on2)cc1 was read as Sa ugtP lethal 5, PrP UTR inh -13, Bead autofluor 4783, Mtb hypoxia rep -2, BJeLR lethal 16, Sa RN4220 lethal 4.7 and Mtb hypoxia rep growth 8.
For CC(CCc1ccc2c(c1)OCO2)=NNC(=O)c1ccccc1 the results were Sa ugtP lethal 5, Mtb hypoxia rep -1, Sa RN4220 lethal 4.2 and Mtb hypoxia rep growth 3.
CCCNS(=O)(=O)c1ccc(OCC(=O)N2CCOCC2)cc1 was read as Sa ugtP lethal 2, PrP UTR inh -30, Bead autofluor 8007, Mtb hypoxia rep 13, BJeLR lethal -4, Sa RN4220 lethal -1.4 and Mtb hypoxia rep growth -1.
For CN(CC(=O)Nc1ccc(Cl)cc1)C(=O)c1cccc(S(=O)(=O)N2CCN(Cc3ccccc3)CC2)c1 the results were Sa ugtP lethal 67, PrP UTR inh -8, Bead autofluor 5841, Mtb hypoxia rep 4, BJeLR lethal -7, Sa RN4220 lethal -5.6 and Mtb hypoxia rep growth 11.
Screening Cc1ncc(C[n+]2csc(CCOC(=O)CC3C4CC5CC(C4)CC3C5)c2C)c(N)n1 (configuration not stated) returned Sa ugtP lethal -3, PrP UTR inh -25, Bead autofluor 8998, Mtb hypoxia rep 2, BJeLR lethal -8, Sa RN4220 lethal 0.4 and Mtb hypoxia rep growth 9.
Cc1cccc(OCCc2c(C)[nH]c(=S)[nH]c2=O)c1 was read as Sa ugtP lethal 3, PrP UTR inh -21, Bead autofluor 4709, Mtb hypoxia rep -1, BJeLR lethal -2, Sa RN4220 lethal 0.8 and Mtb hypoxia rep growth 5.
Screening Cc1ccc(OCC(=O)N2CCN(C(=O)Cc3ccccc3)CC2)cc1 returned Sa ugtP lethal -1, PrP UTR inh -12, Bead autofluor 3266, Mtb hypoxia rep -3, BJeLR lethal 0, Sa RN4220 lethal 8.2 and Mtb hypoxia rep growth 0.
COc1ccc(-c2cc(C(=O)NCc3ccco3)c3ccccc3n2)cc1 was read as Sa ugtP lethal 13, PrP UTR inh 4, Bead autofluor 3265, Mtb hypoxia rep 10, BJeLR lethal -2, Sa RN4220 lethal 1.0 and Mtb hypoxia rep growth 9.
`COc1cc(NC(=O)COC(=O)c2ccccc2F)cc(OC)c1` gave Sa ugtP lethal -1, PrP UTR inh -6, Bead autofluor 7357, Mtb hypoxia rep 3, BJeLR lethal -1, Sa RN4220 lethal 5.3 and Mtb hypoxia rep growth -2.
Screening Cc1ccc2c(c1)N(CC(=O)Nc1ncccc1C)C(=O)C(C(C)C)O2 (configuration not stated) returned Sa ugtP lethal 0, PrP UTR inh -32, Bead autofluor 4102, Mtb hypoxia rep 18, BJeLR lethal 4, Sa RN4220 lethal 6.5 and Mtb hypoxia rep growth 7.
CCN(CC)CCN(C(=O)c1ccc(C(C)=O)cc1)c1nc2ccc(Cl)cc2s1 was read as Sa ugtP lethal 11, PrP UTR inh -18, Mtb hypoxia rep 8, BJeLR lethal -7, Sa RN4220 lethal 3.2 and Mtb hypoxia rep growth -2.
CC1CCN(S(=O)(=O)c2ccc(S(=O)(=O)NCc3cccnc3)cc2)CC1 was read as Sa ugtP lethal 4, PrP UTR inh -12, Bead autofluor 4183, Mtb hypoxia rep 4, BJeLR lethal 4, Sa RN4220 lethal 7.7 and Mtb hypoxia rep growth 6.
`CC(=O)Nc1ccc(NC(=O)C(C)OC(=O)C2CCCC2)cc1` (configuration not stated) gave Sa ugtP lethal 4, PrP UTR inh -18, Bead autofluor 6114, Mtb hypoxia rep 3, BJeLR lethal 9, Sa RN4220 lethal 3.5 and Mtb hypoxia rep growth 2.
For Cc1ccc(/C=C2\SC(=S)N(CCC(=O)NNC(=O)c3ccc(O)cc3)C2=O)cc1 the results were Sa ugtP lethal -1, PrP UTR inh -12, Bead autofluor 5638, Mtb hypoxia rep 1, BJeLR lethal 3, Sa RN4220 lethal 2.0 and Mtb hypoxia rep growth -3.
`Cc1cc(C)nc(SC2CC(=O)N(c3ccc(Br)cc3)C2=O)n1` (configuration not stated) gave Sa ugtP lethal 5, PrP UTR inh 14, Bead autofluor 3881, Mtb hypoxia rep -2, BJeLR lethal -14, Sa RN4220 lethal 3.2 and Mtb hypoxia rep growth 6.
For O=C(CN1C(=O)/C(=C\c2ccc(F)cc2)Oc2ccccc21)NCc1ccco1 the results were PrP UTR inh -29, Bead autofluor 8437 and BJeLR lethal 14.
`CN(CC(=O)Nc1sc2c(c1C#N)CCCCC2)Cc1nc2ccccc2c(=O)[nH]1` gave Sa ugtP lethal -60, PrP UTR inh -3, Bead autofluor 3064, Mtb hypoxia rep -8, BJeLR lethal -7, Sa RN4220 lethal -11 and Mtb hypoxia rep growth 12.
`N/C(=N\[N+](=O)[O-])N1CCN(C(=O)Oc2ccccc2)CC1` gave PrP UTR inh -9, Bead autofluor 4146 and BJeLR lethal -20.
`Cc1ccccc1-n1c(SCC(=O)c2c(N)n(C)c(=O)n(C)c2=O)nc2sc3c(c2c1=O)CCCC3` gave Sa ugtP lethal -19, PrP UTR inh -6, Bead autofluor 2033, Mtb hypoxia rep -6, BJeLR lethal -12, Sa RN4220 lethal -13 and Mtb hypoxia rep growth 3.
Screening CCN(CC(=O)Nc1cccc(OC)c1)C(=O)c1ccncc1 returned Sa ugtP lethal 12, PrP UTR inh -13, Bead autofluor 5136, Mtb hypoxia rep -7, BJeLR lethal -5, Sa RN4220 lethal 3.7 and Mtb hypoxia rep growth 9.
Cc1cccc(C2c3[nH]c4ccccc4c3CCN2Cc2ccc(C)s2)n1 (configuration not stated) was read as Sa ugtP lethal 10, PrP UTR inh -21, Bead autofluor 4289, Mtb hypoxia rep 1, BJeLR lethal -11, Sa RN4220 lethal 1.8 and Mtb hypoxia rep growth 3.
For Cc1sc2ncnc(SCC(=O)N3CCCC(C(F)(F)F)C3)c2c1C (configuration not stated) the results were Sa ugtP lethal -7, PrP UTR inh 9, Bead autofluor inconclusive, Mtb hypoxia rep -5, BJeLR lethal 1, Sa RN4220 lethal -3.5 and Mtb hypoxia rep growth 3.
Screening Cc1ccc(SCC(=O)Nc2ccccc2C(=O)O)cc1 returned Sa ugtP lethal 12, PrP UTR inh -11, Bead autofluor 8521, Mtb hypoxia rep 15, BJeLR lethal -3, Sa RN4220 lethal 4.0 and Mtb hypoxia rep growth 30.
For CC(=O)N1N=C(C)CC1c1ccc(O)cc1 (configuration not stated) the results were Sa ugtP lethal -2, PrP UTR inh -8, Bead autofluor 2342, Mtb hypoxia rep -2, BJeLR lethal 13, Sa RN4220 lethal -0.6 and Mtb hypoxia rep growth 10.
For O=C(CCn1c(=O)sc2ccccc21)NCc1ccc2c(c1)OCO2 the results were Sa ugtP lethal 4, PrP UTR inh -35, Bead autofluor 5337, Mtb hypoxia rep 10, BJeLR lethal 6, Sa RN4220 lethal 2.8 and Mtb hypoxia rep growth 2.
`CCOC(=O)c1oc2ccc(Br)cc2c1NC(=O)CN1CCN(C)CC1` gave Sa ugtP lethal 91*, PrP UTR inh -16, Bead autofluor 2533 and Sa RN4220 lethal 1.4.
Screening Cc1ccc(C2(C)NC(=O)N(Cc3c(C)noc3C)C2=O)cc1 (configuration not stated) returned Sa ugtP lethal 2, PrP UTR inh -26, Bead autofluor 3074, BJeLR lethal 1 and Sa RN4220 lethal 2.1.
COc1cc(/C=N/NC(N)=O)cc(Br)c1OCc1ccccc1C was read as PrP UTR inh -10, Bead autofluor 8150 and BJeLR lethal 1.
O=C1N=C(N2CCOCC2)SC1=C1CCCCC1 was read as Sa ugtP lethal -7, PrP UTR inh -35, Bead autofluor 20921*, Mtb hypoxia rep 8, BJeLR lethal -3, Sa RN4220 lethal 7.6 and Mtb hypoxia rep growth 18.
For O=C(O)CCn1cc(C=C2C(=O)NC(=O)NC2=O)c(-c2cc3ccccc3oc2=O)n1 the results were Sa ugtP lethal 1, PrP UTR inh 14, Bead autofluor 4934, Mtb hypoxia rep -8, BJeLR lethal -7, Sa RN4220 lethal -0.6 and Mtb hypoxia rep growth 6.
`COc1ccc2oc(-c3ccccc3)c(C(=O)O)c2c1` gave Sa ugtP lethal -11, PrP UTR inh -14, Bead autofluor 3638, Mtb hypoxia rep -7, BJeLR lethal 1, Sa RN4220 lethal 3.9 and Mtb hypoxia rep growth -3.
`CN1CCN(Cc2cn(C)nc2-c2ccccc2F)CC1c1ccccc1` (configuration not stated) gave Sa ugtP lethal 6, PrP UTR inh -2, Bead autofluor 4061, Mtb hypoxia rep -11, BJeLR lethal 8, Sa RN4220 lethal 14 and Mtb hypoxia rep growth 0.
CCOc1ccccc1C(=O)Nc1ccccc1-c1ccccc1 was read as Sa ugtP lethal -5, PrP UTR inh -16, Bead autofluor 2615, Mtb hypoxia rep -13, BJeLR lethal -10, Sa RN4220 lethal -4.6 and Mtb hypoxia rep growth 2.
Screening O=C(NNC(=S)Nc1ccccc1)c1cc(Br)ccc1Cl returned Sa ugtP lethal 6, PrP UTR inh -14, Bead autofluor 5614, Mtb hypoxia rep 1, BJeLR lethal 11, Sa RN4220 lethal 7.2 and Mtb hypoxia rep growth 2.
Screening Oc1c(C=Nc2ccccc2Cl)[nH]c2ccccc12 returned Sa ugtP lethal 8, PrP UTR inh -71, Bead autofluor 4588, Mtb hypoxia rep 8, BJeLR lethal 4, Sa RN4220 lethal 5.5 and Mtb hypoxia rep growth 12.
Screening CSc1nc2ccc(NC(=O)CSc3nnc(N)s3)cc2s1 returned Sa ugtP lethal 17, PrP UTR inh -44, Bead autofluor 6717, Mtb hypoxia rep 9, BJeLR lethal 9, Sa RN4220 lethal 3.3 and Mtb hypoxia rep growth 4.
For CCCCC(CC)C(=O)NCc1ccccc1OC (configuration not stated) the results were Sa ugtP lethal 4, PrP UTR inh -29, Bead autofluor 5814, Mtb hypoxia rep 15, BJeLR lethal -1, Sa RN4220 lethal 4.1 and Mtb hypoxia rep growth 11.
For COc1ccccc1NC(=O)c1ccc(NC(=O)C2COc3ccccc3O2)cc1 (configuration not stated) the results were Sa ugtP lethal 5, PrP UTR inh -12, Bead autofluor 4524, Mtb hypoxia rep 1, BJeLR lethal 0, Sa RN4220 lethal -4.7 and Mtb hypoxia rep growth 1.
For COc1c(Cl)ccc(Cl)c1C(=O)OCC(=O)O the results were Sa ugtP lethal 3, PrP UTR inh -18, Bead autofluor 7989, Mtb hypoxia rep -1, BJeLR lethal -5, Sa RN4220 lethal 1.6 and Mtb hypoxia rep growth 2.
`O=C(O)c1cccc(N/N=C/c2cccs2)c1` gave PrP UTR inh 65*, Bead autofluor 2469 and BJeLR lethal 7.
O=C(COC(=O)COc1ccc(Cl)cc1Br)NCCC1=CCCCC1 was read as Sa ugtP lethal 1, PrP UTR inh -17, Bead autofluor 3609, Mtb hypoxia rep 8, Sa RN4220 lethal 2.1 and Mtb hypoxia rep growth 2.

Assay outcomes as filed in PubChem BioAssay.
